TRPML1 inh – inhibitors of human TRPML1 channel; Q9GZU1; TRPML1-inducible cells, Ca2+ dye fluorescence, FDSS; stronger effect = lower value; inhibition of EC80 agonist-evoked calcium signal; activity change, negative = inhibition, % (no concentration beside the values); 0.02% of 390,000 active; AID 624415; in the data active means activity change below about -50%; inconclusive means about -30% to -50%; inactive means above about -30%;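 also: stimulus is agonist 54-4 at its EC80 concentration; % is scaled to controls: 0 for no effect and ±100 for the full control effect; compound concentration not given in the record; the text of the record puts the active cut at -80%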
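Tet-induced TRPML1-DL cells loaded with Ca8 no-wash calcium dye were read kinetically on FDSS. Compound addition was followed by EC80 agonist 54-4 (4 uM final); inhibition was read over 110 s.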
Sfp inh – blocks B. subtilis Sfp PPTase activity; Q9F4F7; Biochemical Sfp PPTase activity, qHTS; Potency, µM, for the others: max response, negative = inhibition, usual class: inhibitors; 3.5% of 310,000 active; active = well fitted inhibition curve with a large enough effect; inconclusive = small, poorly fitted or top-dose-only effect, or another doubt; inactive = no such curve, though single readings can be large or run the other way;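 also: the enzyme is Sfp with the accession as filed and its product quenches rhodamine fluorescence; potency is read from the fitted curve at half-maximal effect; 0% = enzyme reaction without inhibitor and -100% = no enzyme wells; top concentration of the series not given in the record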
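With Hepes-Na pH 7.6 buffer containing 10 mM MgCl2, Sfp (15 nM) modified BHQ-2-YbbR (12.5 uM) using rhodamine-CoA (5 uM). Two reads 30 minutes apart at 525/598 nm yielded each well's rate.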
Menin MLL FP FL – displaces fluorescein MLL peptide from human menin; Fluorescence polarization, fluorescein-MLL peptide displacement from menin; 290,000 tested, under 10 active; FP activity change, % at 61.4 µM; AID 1766; inconclusive = falling polarisation curve, or a change in total fluorescence; inactive = total fluorescence flat and polarisation flat or rising; no compound was filed as active; the % refers to the polarisation; negative = inhibition;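 also: % of control where 0% means no effect; inhibitors lower the polarisation; unlabelled MLL peptide was the positive control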
TRPML1 ag – activates the human TRPML1 channel | TRPML1-expressing cells, Ca2+ dye fluorescence, FDSS; host cell line not named in the record; reference of the full effect not given here | AID 624414 | 0.12% of 410,000 active | Q9GZU1 | activation, % (concentration not given with the values); in the data active = activation above about 50%; inconclusive = about 30% to 50%; inactive = below about 30%; also: 0% is about no effect; the text of the record puts the active cut at 80%
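Calcium fluorescence on an FDSS kinetic reader gave the read-out. Tet-induced TRPML1-DL cells were plated overnight, dye-loaded (Ca8 with quencher, 45-90 min, room temperature, dark), then read 110 s after compound addition, and again 110 s after 4uM final 54-4 (EC80).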
ClpP mod – qHTS Assay for Activators of ClpP | 1.9% of 340,000 active | ATP-dependent Clp protease proteolytic subunit (Bacillus subtilis (strain 168)), P80244 | purified B. subtilis ClpP, FRET peptide cleavage, 20 min | Potency, µM (doses to about 57.5 µM), without a hit: at the top dose activity change, negative = active; active = well fitted falling curve with a large enough effect; inconclusive = small, poorly fitted or top-dose-only effect; inactive = no such curve, though single readings can be large or run the other way; also: potency is read from the fitted curve at half-maximal effect; the source files actives as falling curves though it sought activators and does not explain the sign; nearly all actives have a fitted effect of over 65% in size; many hits overshoot -100%
Target sequence (P80244 whole entry, looked up): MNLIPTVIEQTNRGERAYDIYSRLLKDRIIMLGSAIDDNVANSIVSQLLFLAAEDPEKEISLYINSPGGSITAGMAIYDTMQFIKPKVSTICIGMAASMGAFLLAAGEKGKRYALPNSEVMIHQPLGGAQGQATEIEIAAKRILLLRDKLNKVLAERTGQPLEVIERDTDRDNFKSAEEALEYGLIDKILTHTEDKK
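Buffer: 100 mM Tris/HCl pH8, 100 mM KCl, 0.05% low protease BSA, 2.5% glycerol, 0.01% Tween-20. ClpP 10 microg/mL final; 20 min RT; delta FRET normalized to ADEP and DMSO controls.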
TRPV1 potentiator – potentiators of human vanilloid receptor 1 (TRPV1) | Q8NER1 | TRPV1-expressing cells, Fluo-8 calcium influx, capsaicin EC20 potentiation; host cell line not named in the record; control for the full effect not named in the record | potentiation, % at 8.33 µM | 0.02% of 320,000 active | AID 540277; active means potentiation above 80%; inconclusive means 30% to 80%; inactive means below 30%; also: 0% is about no effect
Target sequence (Q8NER1 whole entry, looked up): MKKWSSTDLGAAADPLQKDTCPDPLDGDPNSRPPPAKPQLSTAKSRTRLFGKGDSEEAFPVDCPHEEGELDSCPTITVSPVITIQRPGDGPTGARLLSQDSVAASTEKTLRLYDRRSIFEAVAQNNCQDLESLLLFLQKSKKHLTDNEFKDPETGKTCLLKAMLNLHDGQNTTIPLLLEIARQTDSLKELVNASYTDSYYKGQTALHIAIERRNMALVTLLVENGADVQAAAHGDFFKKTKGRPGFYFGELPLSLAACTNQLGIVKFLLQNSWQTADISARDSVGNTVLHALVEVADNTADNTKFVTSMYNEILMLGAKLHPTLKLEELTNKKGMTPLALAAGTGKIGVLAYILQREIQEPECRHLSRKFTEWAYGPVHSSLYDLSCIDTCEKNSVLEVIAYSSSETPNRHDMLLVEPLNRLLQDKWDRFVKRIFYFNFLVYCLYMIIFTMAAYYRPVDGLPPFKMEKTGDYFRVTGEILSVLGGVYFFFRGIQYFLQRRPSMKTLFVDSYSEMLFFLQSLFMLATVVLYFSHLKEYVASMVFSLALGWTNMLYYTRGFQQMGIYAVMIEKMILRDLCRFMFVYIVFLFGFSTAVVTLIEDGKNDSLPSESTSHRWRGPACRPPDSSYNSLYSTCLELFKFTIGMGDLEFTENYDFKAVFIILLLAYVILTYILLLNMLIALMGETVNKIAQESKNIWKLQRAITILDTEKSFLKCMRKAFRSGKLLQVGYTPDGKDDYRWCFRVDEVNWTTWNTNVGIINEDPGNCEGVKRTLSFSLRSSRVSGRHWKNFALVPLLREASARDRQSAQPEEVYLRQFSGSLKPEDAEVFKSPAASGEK
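Fluo-8 calcium influx in TRPV1-expressing cells, kinetic read (ex 480/em 520 nm). Compound added and read 3 min for agonist activity, followed by capsaicin at EC20 final and 2 min further read for enhancement.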
PINK1 modulator – changes PINK1 expression | Potency, µM (titrated, usually from 76.6 µM), for the others: top-dose activation (PINK1 increase), hits mostly activators | AID 624263 | 0.2% of 410,000 active | PINK1 immunofluorescence, high-content cytometry, 24 h; active = well fitted activation curve with a large enough effect; inconclusive = small, poorly fitted or top-dose-only effect; inactive = flat fitted curve, though single readings scatter; cell line not stated here;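 also: potency is read from the fitted curve at half-maximal effect; % of control where 0% means no effect; nearly all actives have a fitted effect of over 65% in size; a mitochondrial uncoupler was the plate control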
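Fluorescence from anti-PINK1 antibody, together with nuclear and cell stains, was scanned on a laser-scanning cytometer. Before staining, stable-line cells were incubated 24 hours with compounds at 5 concentrations; primary antibody 12 h at 10 degrees C.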
* marks the source's active call; other numbers are inactive results; ? = inconclusive; . = not tested or not shown; [ ] = dose if it differs, or a comment.

SMILES	TRPML1 inh	Sfp inh	Menin MLL FP FL	TRPML1 ag	ClpP mod	TRPV1 potentiator	PINK1 modulator
CCCCn1c(/N=C/c2cc(OC)ccc2O)nc2ccccc21	11	8%	2.1	-0.8	-2.0%	9	-1.5%
CC(=O)c1ccc(N=Nc2c(C)[nH]n(-c3ccccc3)c2=O)cc1	.	-58%	-5.9	.	0.3%	1	0.3%
CCOC(=O)c1cc2ccccc2n1C1CCN(CCc2ccccc2)CC1	.	.	.	0.3	-12%	.	?
O=c1[nH]c(/C=C\c2cccs2)nc(O)c1[N+](=O)[O-]	-1	1%	3.9	0.0	.	15	2.2%
COc1ccc(C(=O)NC2CCN(C(=S)Nc3ccccc3)CC2)cc1	-4	9%	-0.7	-0.4	.	-13	0.7%
CCOc1cc([N+](=O)[O-])cc(/C=N/NC(=O)c2c(-c3ccccc3)noc2C)c1O	-3	10%	19	-0.4	-0.5%	-1	-1.4%
COc1cccc(NC(=O)CSC2=Nc3ccccc3C3=NC(CC(=O)NCc4ccc5c(c4)OCO5)C(=O)N23)c1 (stereo not drawn)	-1	.	.	0.4	-2.1%	.	4.7%
CCCCN1C(=O)C(CC(=O)NC(c2ccccc2)c2ccccc2)CC(C(=O)N2CCCCCC2)=C1C (stereo not drawn)	.	.	.	-1.2	0.5%	.	0.7%
COc1ccccc1NC(=O)c1nc(SCc2ccc(F)cc2)ncc1Cl	-12	.	.	-0.6	1.7%	.	2.4%
CC1(C(=O)NS(=O)(=O)c2ccc3ccccc3c2)CCN1C(=O)Cc1ccc(-c2ccccc2)cc1 (stereo not drawn)	.	.	.	-0.8	-5.5%	.	0.1%
CC(C)(CO)NC(=S)NCc1ccco1	-6	16µM*	?	-0.3	.	5	-0.1%
COC(CNC(=O)c1ccc2c(c1)ncn2-c1cccc(F)c1)OC	3	16%	-1.8	-0.4	0.5%	-14	-2.2%
COc1cccc(-n2c(SCC(=O)Nc3ccc4c(c3)CCC4)nc3ccccc3c2=O)c1	8	17%	6.2	0.0	-4.1%	8	5.8%
CC1C(O)=C(c2ccccc2)P(=O)(Cc2ccccc2)C1C (stereo not drawn)	.	.	.	-0.4	-2.0%	.	0.5%
COc1cccc(CC(=O)OC(C)C(=O)Nc2ccc(Cl)cn2)c1 (stereo not drawn)	12	.	.	2.2	-6.8%	-28	-0.9%
COc1ccccc1OCCNC(=O)c1cccc(S(=O)(=O)N2CCN(C)CC2)c1	-5	29%	.	0.4	1.6%	26	-0.5%
O=C(NCC(c1ccco1)N1CCCC1)c1cccc(NS(=O)(=O)c2ccccc2)c1 (stereo not drawn)	-3	.	.	0.6	-3.5%	7	-1.8%
Cc1nc(-c2nc(-c3c(C(=O)NNC(=O)c4ccc(Cl)cc4)noc3C)cs2)cs1	0	-16%	-0.2	0.6	0.7%	5	13%
CCn1nc(C)c(NC(=O)CCSc2nc(-c3ccco3)cc(C(F)(F)F)n2)c1C	-12	-16%	3.2	-0.5	-2.2%	1	0.8%
O=C(c1cn2ccccc2n1)N1CCc2c([nH]c3ccccc23)C1c1ccccn1 (stereo not drawn)	-24	-13%	1.3	2.1	.	-5	6.6%
CCCC(C(=O)Nc1ccc(S(=O)(=O)N2CCCC2)cc1)c1ccccc1 (stereo not drawn)	10	.	.	3.8	-1.0%	5	-0.3%
O=C(CSc1nnc(-c2ccccc2O)n1-c1ccccc1)Nc1cccc(C(=O)O)c1	9	-3%	0.4	0.2	.	4	-0.3%
COc1ccc(-c2noc(COc3cc(C)ccc3C)n2)cc1OC	-25	.	.	3.1	-23%	.	0.3%
Cc1noc(C)c1COC(=O)CNC(=O)c1ccc(Cl)cc1	-1	15%	-4.7	-0.2	-0.6%	3	0.0%
COc1ccc(C(=O)CSc2nnc(-c3cc(C)cc(C)c3)o2)cc1	49	22%	-2.1	1.4	1.8%	0	-7.8%[38.3 µM]
CC(=O)Nc1ccc2c(c1)nc(CCNC(=O)c1ccccc1)n2C	17	-11%	3.5	-1.1	-0.6%	-13	-0.2%
CC(C)C[C@H](NC(=O)c1[nH]cnc1C(=O)N[C@@H](C)C(=O)OCc1ccccc1)C(=O)OCc1ccccc1	-9	.	.	2.0	-1.3%	.	4.0%
N#C/C(=C\C1=C(N2CCOCC2)C(=C\c2ccc(Cl)cc2)/CC1)C(=O)Nc1ccccc1F	31	-18%	?	3.4	1.0%	4	4.6%
COc1ccc(CC(=O)Nc2ccc3nc(C)sc3c2)cc1OC	-3	-8%	5.2	1.4	.	-16	2.2%
c1ccc(Oc2ccc(-c3ccnc4ncnn34)cc2)cc1	58	-28%	0.8	5.0	.	-13	-1.0%
Clc1ccc2nc(C3CCCCC3)c(CC3CCCCC3)n2c1	-16	.	.	0.0	-3.4%	.	9.8%
COc1ccc(-c2cc(C)no2)cc1S(=O)(=O)NCC1CCN(Cc2cc(C)ccc2C)CC1	11	24%	5.5	0.0	-3.3%	5	0.3%
CCCC(=O)Nc1c(-c2ccc(OC)cc2)c(=O)c2ccccc2n1C	21	3%	6.3	0.4	16µM*	5	3.6%[38.3 µM]
CCOC(=O)c1c(CN2CCCCC2)oc2ccc(O)cc12	-17	-1%	3.4	0.5	28µM*	25	-0.4%
COc1ccc(S(=O)(=O)N(CC(=O)NCc2ccccc2)c2ccc(C)cc2)cc1OC	8	.	.	-0.9	2.4%	.	0.0%
Cc1cc(N2CCC(C)CC2)nc2cccc(O)c12	6	15%	-1.7	0.4	?	9	4.3%
CCOC(=O)c1c(NC(=O)C2CCCN(S(=O)(=O)c3ccccc3)C2)sc2c1CCCC2 (stereo not drawn)	40	3%	4.7	0.9	?	7	1.2%
COc1ccc(CCNC(=O)CSc2nc(O)c(CC(C)C)c(=O)[nH]2)cc1OC	-20	-16%	-1.6	-0.3	-1.3%	19	-1.0%
COc1ccc(CCNS(=O)(=O)c2cccc(C)c2)cc1OC	-17	16%	5.0	-0.6	-0.6%	-14	-7.0%[38.3 µM]
O=C(C(=O)N1CCc2ccccc2C1)N1CCc2ccccc2C1	.	1%	-0.2	.	.	7	.
Cc1ccc(S(=O)(=O)N2CCN(C(=O)COC(=O)COc3ccc(Cl)c(C)c3)CC2)c(C)c1	-15	.	.	-0.2	-6.4%	.	-0.1%
O=C1CC2(CC(c3ccc(Cl)cc3)=NO2)C(=O)N1c1ccccc1 (stereo not drawn)	7	-3%	-1.4	0.5	.	11	0.2%
CCOn1c(=O)c(-c2ccc(OC)c(OC)c2)[n+]([O-])c2ccccc21	-6	16%	8.9	-0.6	-0.5%	-1	-0.3%
COc1cccc2c(=O)cc(C)n(CC(=O)Nc3ccc(C)c(C)c3)c12	-1	2%	2.6	-0.5	-9.7%	-32	-1.3%
O=C(O)c1cc(-c2ccc(N3CCOCC3)cc2)nn1-c1ccc(F)cc1F	-15	13%	3.8	0.2	.	3	-1.5%
CCC(=O)Nc1cccc(-c2cn3ccccc3n2)c1	6	8%	0.5	-0.4	10µM*	2	-0.6%
COc1ccc2[nH]c(C)cc(=O)c2c1	1	6%	1.7	-0.5	25µM*	12	5.6%
CC(C)C(=O)Nc1ccc(N2CCN(c3ccc(F)cc3)CC2)cc1	0	20%	-7.3	0.0	.	1	-0.7%
CC(NC(=O)C1CCN(C(=O)Nc2ccccc2)CC1)c1ccccc1Cl (stereo not drawn)	-7	.	.	-0.6	-0.3%	1	1.0%
CC(C)NC(=O)N1c2ccccc2Sc2ccccc21	13	14%	1.5	-1.7	-1.1%	-11	12%
Next section
SMILES	TRPML1 inh	Sfp inh	Menin MLL FP FL	TRPML1 ag	ClpP mod	TRPV1 potentiator	PINK1 modulator
NC1=NC(=O)/C(=C/c2ccccc2OS(=O)(=O)c2ccccc2)S1	11	0%	5.6	-0.2	?	15	?
O=C(COC(=O)c1ccccc1Nc1ccc(SC(F)F)cc1)NC1CC1	29	4%	0.3	-0.1	.	1	4.4%
C=CCN(CC=C)C(=O)c1ccccc1NC(=O)c1ccccc1C	6	13%	-0.7	-0.9	-4.4%	17	4.5%
COCCn1c(SCc2cccc([N+](=O)[O-])c2)nc2ccccc2c1=O	11	5%	8.3	4.4	-1.1%	-3	-0.3%
COc1ccc(CNC(=O)Cc2coc3ccc(C(C)C)cc23)cc1	-10	.	.	0.9	-2.8%	.	-0.9%
C/C=C/C(=O)NCCc1ccc(OC)c(OC)c1	2	17%	-1.3	0.8	.	-3	-1.6%
COc1ccc(-n2nnc3c(SCC(=O)OCc4ccccc4)ncnc32)cc1	12	-3%	-0.9	0.1	-1.2%	-16	-0.8%
COc1ccc(C(CC(=O)Nc2nccs2)C(C)C)cc1 (stereo not drawn)	-16	-6%	-2.5	-1.4	-0.2%	6	-0.3%
CNCCCCOc1ccc(C(C)(C)C)cc1Cl	0	-7%	-5.0	1.3	.	4	11%
CC(C(=O)N1c2ccccc2CC1C)N1CCN(S(=O)(=O)c2ccccc2F)CC1 (stereo not drawn)	-14	.	.	0.4	-0.9%	-14	0.4%

Some values from the entries so far.
CC(C)C(=O)Nc1ccc(N2CCN(c3ccc(F)cc3)CC2)cc1 – Menin MLL FP FL = -7.3
CCn1nc(C)c(NC(=O)CCSc2nc(-c3ccco3)cc(C(F)(F)F)n2)c1C – ClpP mod = -2.2%

(list continues)
SMILES	TRPML1 inh	Sfp inh	Menin MLL FP FL	TRPML1 ag	ClpP mod	TRPV1 potentiator	PINK1 modulator
CCn1cc2c(c1-c1cccc(C)c1)c(=O)n(C)c(=O)n2C	-9	-11%	0.3	0.1	-3.7%	-9	?
CCOc1ccccc1NC(=O)CSC1=C(C#N)C(c2ccco2)C(C(=O)Nc2nc3ccccc3s2)=C(C)N1 (stereo not drawn)	-6	-3%	10	1.0	?	4	?
Cc1ccccc1NC(=O)CSc1nc2n(n1)CCCCC2	27	-2%	2.2	1.3	0.5%	10	3.8%
S=C(NCc1ccc(Cl)cc1)NCc1ccccn1	-10	20%	0.3	1.0	-0.1%	-9	0.6%
COc1ccc(/C=C/c2nc(-c3ccccc3)cc(=O)[nH]2)cc1	26	17%	6.6	1.0	.	-8	14%
Cc1csc(SCC(=O)NC(=O)NC(C)C)n1	0	17%	-5.3	-0.1	.	-4	1.4%
COc1ccc(NC(=O)CSC2=NCCN2)cc1	-13	-11%	-0.7	0.5	.	4	2.2%

Source: PubChem
